Assay outcomes (PubChem)
HNF4A DNA FP: change in binding of human HNF4 alpha to DNA; HNF4a-FITC DNA binding, fluorescence polarization, 1 h; activity change, % at 10 µM; actives 0.3% (n = 360,000); P41235; in the data active means activity change above about 30%, passing the limit was not always enough;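 further: controls were the assay level and a saturating level of protein; the project sought stronger binding though the title names inhibitors; some compounds called inactive have numbers as strong as hits; positive values seem to mean higher polarization but the record does not say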
ALR inh: blocks human ALR sulfhydryl oxidase activity | P55789 | purified ALR, DTT oxidation, H2O2 HRP-luminol luminescence | inhibition, % (test concentration not listed) | actives 3.8% (n = 290,000);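 active means mean and each replicate at 75% or more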;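 further: stock transfer was 7.5 nL into about 7.5 µL; 0% = neutral wells and 100% = wells with inactivated enzyme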
B2AR ag: agonists of human beta-2 adrenergic receptor inducing internalization. Am2.2-beta2AR cells, FAP receptor internalization, flow cytometry; reference of the scale not given here. response, % (test concentration not listed). actives 0.43% (n = 340,000);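 active means response above a set limit, near 3 SD of response in nonfluorescent compounds, cut at about 42% in these data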;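 further: stock transfer was 100 nL into about 11 µL; a reference agonist was the positive control; negative values mostly stem from fluorescent compounds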
FGF22 binding: binders of recombinant human FGF22 by thermal shift | Q9HCT0 | SYPRO orange fluorescence; percent of sucrose octasulfate shift, DMSO zero | calls only at 9.99 µM | actives 1.5% (n = 340,000);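 active means melting point raised past a set limit in the mean and every replicate; three in four hits are not shown here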
LANA-H2A inh: blocks KSHV LANA binding to histone H2A/H2B; Q9QR71; cell-free LANA-H2A/H2B peptide, fluorescence polarization; inhibition, % (concentration not given with the values); actives 0.6% (n = 320,000); in the data active means inhibition mostly above about 10%, no sharp cut-off; inactive means mostly below about 6.7%;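 further: stock transfer was 7.5 nL into about 10 µL; 0% = median of vehicle wells and 100% = median of positive control wells; one replicate is shown; the record names a cut of 25% in any replicate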
Target sequence (Q9QR71 whole entry, looked up): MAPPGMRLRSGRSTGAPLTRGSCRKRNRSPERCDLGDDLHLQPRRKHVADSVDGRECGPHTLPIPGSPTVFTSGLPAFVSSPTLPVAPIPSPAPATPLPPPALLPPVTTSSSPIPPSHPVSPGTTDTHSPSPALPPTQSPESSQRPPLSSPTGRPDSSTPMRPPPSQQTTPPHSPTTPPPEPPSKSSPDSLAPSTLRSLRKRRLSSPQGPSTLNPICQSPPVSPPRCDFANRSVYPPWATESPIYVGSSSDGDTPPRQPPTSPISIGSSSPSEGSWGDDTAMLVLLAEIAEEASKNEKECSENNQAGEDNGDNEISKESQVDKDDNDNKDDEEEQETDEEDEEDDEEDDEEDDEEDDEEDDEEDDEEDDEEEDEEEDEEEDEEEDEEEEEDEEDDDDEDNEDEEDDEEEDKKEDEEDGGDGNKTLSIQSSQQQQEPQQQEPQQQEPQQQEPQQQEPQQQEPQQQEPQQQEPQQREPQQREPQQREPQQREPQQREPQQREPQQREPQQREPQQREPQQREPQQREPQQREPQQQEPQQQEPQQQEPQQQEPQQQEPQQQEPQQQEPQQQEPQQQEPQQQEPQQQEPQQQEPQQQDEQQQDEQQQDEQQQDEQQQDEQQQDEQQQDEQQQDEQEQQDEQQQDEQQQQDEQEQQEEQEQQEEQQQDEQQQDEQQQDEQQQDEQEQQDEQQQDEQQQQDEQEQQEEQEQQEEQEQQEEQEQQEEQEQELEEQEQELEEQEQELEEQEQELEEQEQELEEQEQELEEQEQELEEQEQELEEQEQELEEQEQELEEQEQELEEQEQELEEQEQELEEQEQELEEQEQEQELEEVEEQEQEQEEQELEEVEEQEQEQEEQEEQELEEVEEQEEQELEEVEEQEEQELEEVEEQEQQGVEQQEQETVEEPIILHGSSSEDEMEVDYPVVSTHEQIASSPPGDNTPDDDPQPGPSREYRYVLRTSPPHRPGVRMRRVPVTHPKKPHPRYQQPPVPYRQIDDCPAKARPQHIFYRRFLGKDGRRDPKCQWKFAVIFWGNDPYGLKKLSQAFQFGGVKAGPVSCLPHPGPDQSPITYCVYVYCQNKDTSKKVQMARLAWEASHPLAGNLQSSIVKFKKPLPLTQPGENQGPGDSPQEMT
UCH37 inh: inhibitors of human deubiquitinating enzyme UCH37; inhibition, % (no concentration beside the values); actives 0.33% (n = 330,000); Q9Y5K5; purified proteasome/UCH37, Ub-AMC cleavage fluorescence;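 active means mean of two replicates above 20%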;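 further: 0% = compound-free wells with enzyme and 100% = wells lacking proteasome; stock transfer was 100 nL into about 20 µL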
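assay system = human UCH37 enzyme supplied as purified proteasome complex | amount = proteasome at 0.15 nM in the dispensed enzyme solution | schedule = 30 min compound-proteasome preincubation then 25 min substrate reaction, room temperature | measured by = fluorescence, ex 355 nm, em 460 nm | benchmarks = no-proteasome wells (full inhibition) and compound-free wells (no inhibition)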
E coli growth: inhibitors of Escherichia coli growth. OD600, 23 h; hits give low values. OD600 absorbance (no concentration beside the values). actives 0.21% (n = 330,000);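 active means OD600 absorbance below the run mean of sample wells minus 3.6 SD, in any replicate, cut at about 0.56 in these data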;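 further: stock transfer was 300 nL into about 60 µL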
* marks the source's active call; other numbers are inactive results; i = inactive; . = no result given.

SMILES	HNF4A DNA FP	ALR inh	B2AR ag	FGF22 binding	LANA-H2A inh	UCH37 inh	E coli growth
CSc1ccc(CNC(C)(C)CO)cc1	0.0	2	-13	.	-2.2	3.6	0.72
CC1CCN(S(=O)(=O)c2ccc(NC(=O)CSc3nnnn3C)cc2)CC1	1.2	-3	0	.	3.0	2.6	0.69
Cc1ncoc1C(=O)Nc1ccccc1C(N)=O	-3.2	-11	-9	.	4.1	2.4	0.67
N#CCCN(C(=O)Nc1ccccc1)C1CCCCC1	-0.1	.	5	i	.	2.9	0.68
Cc1ccccc1CNCc1cccnc1	-2.7	-9	1	.	5.0	3.8	0.69
O=C(NC1CCC(O)CC1)c1ccccc1OCc1ccc(F)cc1 (centres undefined)	1.6	5	-10	i	2.1	1.5	0.71
CC(C)c1ccc(C2NC(C(=O)O)CS2)cc1 (centres undefined)	3.8	1	-5	.	1.1	3.5	0.71
CCOc1ccc(Cl)cc1C(c1c(C)[nH][nH]c1=O)c1c(C)[nH][nH]c1=O	-3.9	14	10	i	1.2	3.6	0.72
Cc1ccc(-c2cc(-c3ccccc3Cl)[nH]n2)c(O)c1	0.4	9	1	.	-0.3	2.0	0.64
CCCN1C2CCCC1CC(NC(=O)NC1CCCCC1)C2 (centres undefined)	-1.1	-7	-7	.	-1.3	4.8	0.66
COc1ccc(OCC(=O)NS(=O)(=O)c2ccc(Cl)cc2)cc1	-0.7	.	-1	i	-11	-2.3	0.69
COc1ccccc1NC(=O)C/C(C)=N/NC(=O)COc1c(Br)cc(Br)cc1OC	3.8	0	-11	i	1.7	.	.
Cc1ccc(/C=C/C(=O)N2CCN(S(=O)(=O)/C=C/c3ccccc3)CC2)o1	1.4	1	-1	i	5.7	6.0	0.67
CCOC(=O)c1nn(-c2ccc(OCC)cc2)c2nc(CC(C)C)c(C#N)c(=O)n12	0.1	2	1	.	-3.5	-190	0.73
COc1cc2c(=O)c(-c3ccc(O)cc3)coc2cc1OC1OC(CO)C(O)C(O)C1O (centres undefined)	1.3	.	0	i	0.8	3.4	.
O=c1c2cc(Br)ccc2nc(-c2ccccc2)n1O	-0.2	2	-2	i	-0.3	.	.
O=C(Cn1c2c(sc1=O)C1c3ccccc3OCC1CS2)Nc1ccc(Cl)cc1 (centres undefined)	2.2	.	-6	.	0.2	4.9	0.72
N=C(N=C(N)N)N1CCc2ccccc21	-1.5	.	5	.	-2.1	0.8	0.71
COCC(=O)Nc1ncc(S(=O)(=O)c2ccc([N+](=O)[O-])cc2)s1	0.5	-16	9	i	5.2	2.5	0.72
CCN1CCN(c2cc(C)c3cc(NC(=O)c4cccc(OC)c4)ccc3n2)CC1	0.9	-6	19	i	4.7	8.5	0.64
Cc1cccc(NS(=O)(=O)c2ccc3[nH]c(=O)oc3c2)c1C	2.3	-3	-7	i	1.1	2.6	0.66
Cc1c(CC(=O)O)c(=O)oc2cc3c(cc12)CCC(C)(C)O3	1.1	-23	-3	i	-14	i	0.66
Cc1ccn2c(C(=O)N/N=C\c3ccccc3[N+](=O)[O-])c(C)nc2c1	0.2	0	4	.	1.7	.	.
CCN(Cc1ccc(OC)c(F)c1)C(C)C(=O)Nc1ccc(S(=O)(=O)N2CCCC2)cc1 (centres undefined)	-0.1	-2	-5	i	-0.3	-0.2	0.7
O=C(CCCc1nc(-c2ccccc2)no1)NC1CCCCC1	0.3	0	-1	i	-3.9	5.0	0.7
Other results:
SMILES	HNF4A DNA FP	ALR inh	B2AR ag	FGF22 binding	LANA-H2A inh	UCH37 inh	E coli growth
COc1ccc(NC(=O)Nc2cccc3c2O[C@H](CN(C)S(=O)(=O)c2ccc(OC)cc2)[C@@H](C)CN([C@H](C)CO)C3=O)cc1	4.1	-2	1	i	-149	8.5	0.69
CCOc1ccc(N2C(=O)Nc3ccccc3C2(O)C(=O)NCc2ccc(C)cc2)cc1 (centres undefined)	-1.2	-5	-2	i	-2.2	2.9	0.68
Cc1ccc(NC(=O)Cn2cccc2)cc1	-1.2	4	6	i	-1.4	5.3	0.72
O=C(CCCOc1ccccc1)OCn1nnc2ccccc2c1=O	1.0	1	0	i	2.9	4.0	0.66
CN(C)S(=O)(=O)N1CCC(Oc2ccc(C(=O)NCCc3cscn3)cc2)CC1	0.9	-4	1	i	-2.1	-0.4	0.71
COc1cc(/C=C/C(=O)OCC(=O)Nc2nnc(-c3ccccc3)o2)cc(OC)c1OC	-0.1	-7	5	i	0.9	-23	0.67
CCCCN(C)C(=O)C(Cc1ccccc1)NS(=O)(=O)c1ccc2c(c1)CCC(=O)N2 (centres undefined)	0.9	-17	1	i	-0.9	5.8	0.75
N#C/C(=C\c1cccc([N+](=O)[O-])c1)C(=O)NCC1CCCO1 (centres undefined)	0.3	.	-5	i	-4.4	-1.5	0.65
COc1ccc(S(=O)(=O)N(C)C[C@H]2Oc3c(NC(=O)Nc4ccc5c(c4)OCO5)cccc3C(=O)N([C@H](C)CO)C[C@@H]2C)cc1	7.4	-7	-12	i	17*	-0.2	.
COc1ccccc1/C=C1\CCCC2=C1Nc1nnnn1C2c1ccccc1OC (centres undefined)	-2.8	.	8	.	8.8	-1.6	0.68
CCOC(=O)c1[nH]cnc1C(=O)Nc1ccccn1	-1.2	-7	-6	.	4.0	3.2	0.66
Cc1ccc2nc(SCC(=O)Nc3ccc(Cl)cc3)nc(=O)n2c1	1.2	4	6	i	3.1	5.8	0.69
Cc1nc2ccccc2c(-c2ccccc2)c1CC(=O)O	-0.1	-9	4	.	-2.0	2.2	0.65
Cc1ccc(NC(=O)c2c(C(=O)Nc3ccccc3)sc3nc(C)cc(=O)n23)cc1	2.4	4	-12	i	3.4	0.0	0.7
O=C(NNC(=O)c1ccc2ccccc2c1O)NC1CCCCC1	-3.6	73	1	i	2.6	-134	0.7
CCCNC(=O)CCn1nc(-c2ccc(C)cc2)c2ccccc2c1=O	-0.6	0	-11	i	-1.1	4.7	0.68
CCC(C)N(C(=O)COC(=O)c1cc([N+](=O)[O-])ccc1N)C1CCS(=O)(=O)C1 (centres undefined)	-0.5	-3	3	i	1.3	5.2	0.71
O=C(CCN1C(=O)/C(=C/c2cccs2)SC1=S)Nc1ccc(C(=O)O)cc1	8.2	4	-2	i	3.0	.	.
Cc1ccc(Nc2nc(N)nc(CSc3nncn3C)n2)cc1	-5.5	-3	6	.	7.7	0.9	0.67
Cc1noc(NS(=O)(=O)c2ccc(NC(=O)CSc3nnc(-c4ccccc4)n3C3CCCCC3)cc2)c1C	2.3	98*	-9	i	-3.9	6.4	0.68
C/C(=N/Nc1nc(-c2ccccc2)cc(-c2ccc(F)cc2)n1)c1cccc(N)c1	1.8	.	3	.	2.8	.	.
Cc1cccc(COCC(Cc2ccccc2)N2CCN(C(=O)c3cccc(Cl)c3)CCC2=O)c1 (centres undefined)	0.1	-12	9	i	-0.4	1.5	0.65
N#Cc1cc2cc3c(cc2nc1SCC(=O)N1CCOCC1)OCCO3	2.7	.	9	i	-7.0	-17	0.66
CCCCCC(=O)Nc1ccc(-c2csc(C)n2)cc1	-0.3	-2	2	.	-5.5	0.4	0.69
CC(C)Cn1c(N)c(C(=O)CSc2n[nH]c(N)n2)c(=O)n(C)c1=O	1.8	31	6	i	3.1	4.8	0.67

Exported bar-delimited: entries from further up
mol | HNF4A DNA FP | ALR inh | B2AR ag | FGF22 binding | LANA-H2A inh | UCH37 inh | E coli growth
N#Cc1cc2cc3c(cc2nc1SCC(=O)N1CCOCC1)OCCO3 | 2.7 | . | 9 | i | -7.0 | -17 | 0.66
CCCCCC(=O)Nc1ccc(-c2csc(C)n2)cc1 | -0.3 | -2 | 2 | . | -5.5 | 0.4 | 0.69

Arranged by the number under E coli growth (rising): 5 of the compounds above
SMILES	HNF4A DNA FP	ALR inh	B2AR ag	FGF22 binding	LANA-H2A inh	UCH37 inh	E coli growth
Cc1nc2ccccc2c(-c2ccccc2)c1CC(=O)O	-0.1	-9	4	.	-2.0	2.2	0.65
CC(C)Cn1c(N)c(C(=O)CSc2n[nH]c(N)n2)c(=O)n(C)c1=O	1.8	31	6	i	3.1	4.8	0.67
CCOc1ccc(N2C(=O)Nc3ccccc3C2(O)C(=O)NCc2ccc(C)cc2)cc1 (centres undefined)	-1.2	-5	-2	i	-2.2	2.9	0.68
CCCCCC(=O)Nc1ccc(-c2csc(C)n2)cc1	-0.3	-2	2	.	-5.5	0.4	0.69
CCCCN(C)C(=O)C(Cc1ccccc1)NS(=O)(=O)c1ccc2c(c1)CCC(=O)N2 (centres undefined)	0.9	-17	1	i	-0.9	5.8	0.75

More structures follow:
SMILES	HNF4A DNA FP	ALR inh	B2AR ag	FGF22 binding	LANA-H2A inh	UCH37 inh	E coli growth
Cc1nc2ccccc2nc(C)c1=NO	-5.2	.	6	.	0.4	0.3	0.7
CCC(C(=O)OC)n1cnc2scc(-c3ccc(C)c(C)c3)c2c1=O (centres undefined)	-2.4	1	0	i	-0.9	-2.3	0.66
Nc1c(Cl)ncnc1N/N=C/c1cccnc1	-2.6	40	4	i	-2.0	.	.
COc1ccccc1OC(C)C(=O)Nc1ccccc1C(=O)NCC1CCCO1 (centres undefined)	-1.9	3	13	i	-6.9	4.2	0.68
CCOc1cc(N2CCOCC2)c(OCC)cc1NC(=O)C(NC(=O)c1ccco1)C(C)C (centres undefined)	-2.2	-24	-11	.	-3.7	-0.1	0.73
CCN(CC)P(=O)(c1ccccc1)c1c(C)nc2ccccn12 (centres undefined)	-1.4	-13	-7	i	-1.1	-0.6	0.67
COC(=O)c1ccc(CSc2nnc(N)s2)o1	0.7	0	9	i	-0.7	2.3	0.71
COc1cc(C(c2c(O)cc(C)[nH]c2=O)c2c(O)cc(C)[nH]c2=O)ccc1O	0.4	45	8	i	4.3	-0.7	0.69
COc1ccc(C(=O)OCC(=O)NCCCc2ccccc2)cc1[N+](=O)[O-]	0.3	-5	1	i	-1.7	3.1	0.73
CCC(=O)N1c2ccccc2NC2=C(C(=O)CC(C)(C)C2)C1c1ccc(O)c(OC)c1 (centres undefined)	0.7	19	-7	i	0.4	-0.3	0.68
CCC1=C(OC(=O)N(CC)CC)N2C(=O)OC(=NCCOC)[C@]2(Cc2ccccc2)[C@H]2C1=CC[C@H]1C(=O)NC(=O)[C@H]12	1.4	.	-3	i	1.3	1.0	.
Brc1ccc(C2=CC(c3ccco3)n3nnnc3N2)cc1 (centres undefined)	-4.2	.	0	i	2.4	-0.6	0.71
COc1ccc(NC(=O)CSCC(=O)OCc2cccc(OC)c2OC)cc1	1.8	-5	6	i	1.9	2.1	0.68
O=C(NCc1ccccc1Br)c1cccc2c1C(=O)c1ccc(N3CCC(Cc4ccccc4)CC3)cc1S2(=O)=O	41	-3	-35	.	5.7	.	.
Cc1noc(C)c1C(=O)NCCCc1ccccc1	-2.3	-9	-5	.	-2.5	-0.2	0.68
O=C(Nc1ccc2c(c1)OCO2)c1ccncc1	-2.1	-10	5	.	-1.2	1.8	0.74
CCC(Oc1ccccc1)C(=O)NC1C(=O)N2C1SC(C)(C)C2C(=O)O (centres undefined)	-1.1	-4	-4	i	-1.6	.	.
Cc1ccc(N2NC(=O)/C(=C/C=C/c3ccco3)C2=O)cc1C	-2.8	97*	10	.	-3.7	11	0.64
COCCNC(=O)c1cc(Sc2nnc(C)s2)nc2ccccc12	.	0	.	.	3.2	3.9	0.7
CCC(=O)c1ccc(OCC(=O)OCC(=O)N2CCc3ccccc32)cc1	1.4	.	-11	i	-4.4	0.6	0.69
COCC(=O)N[C@@H]1c2ccccc2CC[C@@H]1OCc1ccccc1	4.5	.	-3	i	.	-1.1	0.68
O=C(COC(=O)c1ccc(F)c(S(=O)(=O)N2CCOCC2)c1)c1ccccc1	-3.3	0	6	i	-0.1	4.8	0.72
COc1ccc(C(=O)NCCN(C)C)c2nc3ccccc3cc12	-31	.	-9	i	.	.	.
O=C(CCCOc1ccc(Br)cc1)Nc1ccc(S(=O)(=O)N2CCOCC2)cc1	-1.8	-2	11	i	-1.7	4.9	0.67

Only part of the results is shown; the hit share may differ from the screen's.
